Ecoli rRNA inh – inhibitors of bacterial rRNA selective over humanized ribosomes. AID 720706. E. coli WT GFP vs humanized-ribosome RFP mutants, fluorescence, 24 h; active compounds read low; DMSO median 0, no signal -100. GFP signal change (wild-type ribosome), % (test concentration not listed). hit rate 1.6% among 350,000;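 active = significant combined selectivity score with lowered wild-type GFP, culture density cut under 30%, mutant RFP and density less affected; inactive = any of these conditions unmet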; note: one replicate is shown; some compounds called inactive have numbers as strong as hits
Ecoli rRNA inh OD600 – further read-out of Ecoli rRNA inh, marked with its call; OD600 change, %; measured here: OD600 growth;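 optical density of the mix in the first replicate; 0 = DMSO median and -100 = no signal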
Ecoli rRNA inh RFP – recorded beside Ecoli rRNA inh, whose call it bears; RFP signal change, %; measured here: RFP humanized mutant strains;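 first replicate; 0 = DMSO median and -100 = no signal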
Active calls of the source: *. An excerpt. The share of hits here may be higher or lower than overall.

Second line of a record: Ecoli rRNA inh | Ecoli rRNA inh OD600 | Ecoli rRNA inh RFP
> COc1ccc(S(=O)(=O)N2CCCCN3[C@@H](CO)[C@H](c4ccc(C#CCC(C)C)cc4)[C@@H]3C2)cc1
    -29 | -32 | 16
> CCC(=O)N(C)C[C@@H]1Oc2cc(C3=CCCCC3)ccc2S(=O)(=O)N([C@H](C)CO)C[C@@H]1C
    -8 | -13 | 2.1
> COCC(=O)Nc1ccc2c(c1)OC[C@@H](C)N(Cc1cncnc1)C[C@@H](C)[C@@H](OC)CN(C)C2=O
    2 | 2 | 0.3
> CNC[C@@H]1OCCCC[C@@H](C)Oc2ccc(NC(=O)Nc3ccccc3)cc2C(=O)N([C@H](C)CO)C[C@@H]1C
    0 | -2 | -1.0
> COc1ccccc1CN(C)C[C@@H]1OCc2ccccc2-c2c(n(C)c3ccccc23)C(=O)N([C@H](C)CO)C[C@H]1C
    1 | -20 | 24
> COc1ccc2c3c(n(C)c2c1)[C@H](CO)N(Cc1ccccc1)CC31CCN(C)CC1
    1 | 8 | 2.5
> COc1ccc2c3c([nH]c2c1)[C@H](CO)N(C(=O)Nc1ccc(F)cc1)CC31CN(S(=O)(=O)c2cccs2)C1
    -3 | -28 | 25
> C[C@@H]1CN([C@H](C)CO)C(=O)Cc2cc(NC(=O)Cn3cnnn3)ccc2O[C@@H]1CN(C)C(=O)Nc1ccc(F)cc1
    -3 | 1 | -0.4
> Cc1noc(C)c1NC(=O)N1C[C@@H](O)COC[C@@H]2O[C@@H](CC(=O)N[C@H]3CCN(Cc4ccccc4)C3)CC[C@H]21
    2 | 2 | -0.1
> CN1[C@@H]2CN(S(C)(=O)=O)C[C@H]1C2c1ccc(-c2ccc(F)cc2)cc1 (some centres not stated)
    -4 | -7 | 3.2
> CC(=O)N1[C@@H](CO)[C@H](c2ccc(-c3ccccc3)cc2)[C@@H]1CNC(=O)C1CC1
    1 | 0 | 0.9
> O=C(NC1CCCC1)N1CC(=O)N2[C@H](CO)[C@H](c3ccc(-c4ccccc4)cc3)[C@@H]2C1
    -4 | 5 | -0.1
> C/C=C/c1cnc2c(c1)C(=O)N([C@@H](C)CO)C[C@@H](C)[C@H](CN(C)Cc1ccccc1F)O2
    1 | 8 | -4.0
> C[C@@H]1CN([C@@H](C)CO)C(=O)c2cc(C#Cc3ccncc3)cnc2O[C@H]1CN(C)Cc1ccncc1
    1 | 5 | -2.5
> C[C@H]1CN([C@@H](C)CO)S(=O)(=O)c2ccc(-c3ccncc3)cc2O[C@@H]1CN(C)C(=O)C1CCC1
    1 | 1 | -1.9
> COc1ccc(NC(=O)N(C)C[C@H]2Oc3ccc(NS(=O)(=O)c4ccc(C)cc4)cc3C(=O)N([C@@H](C)CO)C[C@H]2C)cc1
    0 | 5 | 1.1
> C[C@H](CO)N1C[C@H](C)[C@@H](CN(C)C(=O)Nc2ccc(C(F)(F)F)cc2)Oc2ccc(NS(C)(=O)=O)cc2CC1=O
    2 | -5 | -1.9
> COc1ccc(C#Cc2cnc3c(c2)C(=O)N([C@H](C)CO)C[C@H](C)[C@H](CN(C)C(=O)Nc2cccc(OC)c2)O3)cc1
    2 | 6 | 1.1
> C[C@@H]1CN([C@@H](C)CO)C(=O)c2ccccc2-c2ccccc2CO[C@@H]1CN(C)Cc1ccc(C(F)(F)F)cc1
    -1 | -6 | 0.6
> C[C@@H]1CC(=O)NCC/C=C\C[C@H](c2cccc(Cl)c2)NC1=O
    2 | -1 | 0.9
> C[C@H]1CN([C@@H](C)CO)C(=O)Cc2cc(NC(=O)Nc3ccc(F)cc3)ccc2O[C@H]1CN(C)S(=O)(=O)c1cn(C)cn1
    2 | -2 | -2.1
> CC(=O)N(C)C[C@@H]1Oc2ccccc2C(=O)N(C)C[C@@H]1C
    2 | 4 | -0.9
> Cc1ccc(S(=O)(=O)N(C)C[C@H]2Oc3c(NS(=O)(=O)c4cn(C)cn4)cccc3C(=O)N([C@@H](C)CO)C[C@@H]2C)cc1
    0 | 2 | 1.3
> CC(=O)N1C[C@@H]2C(c3ccccc3)[C@H](C1)N2CC(F)(F)F (some centres not stated)
    0 | 3 | 0.4
> Cc1noc(C)c1NC(=O)Nc1cccc2c1O[C@H](CN(C)C(=O)Nc1ccc(F)cc1)[C@@H](C)CN([C@@H](C)CO)C2=O
    0 | 4 | -0.6
> CO[C@H]1CN(C)C(=O)c2cc(NC(=O)Nc3cccc(F)c3)ccc2OC[C@H](C)N(C(=O)C2CC2)C[C@H]1C
    -4 | -7 | 6.3
> CNC[C@@H]1Oc2ccc(N(C)C)cc2C(=O)N(C)C[C@@H]1C
    1 | -1 | -0.2
> CCCN(C)C[C@@H]1Oc2cc(C#CC3CCCCC3)ccc2S(=O)(=O)N([C@@H](C)CO)C[C@@H]1C
    9 | 8 | 1.7
> COc1ccc(NC(=O)N(C)C[C@H]2Oc3ccc(NS(=O)(=O)c4ccc(C)cc4)cc3CC(=O)N([C@@H](C)CO)C[C@@H]2C)cc1
    0 | 2 | 1.8
> C[C@H]1CC=CC[C@H](c2ccc3c(c2)OCO3)NC(=O)[C@@H](Cc2ccccc2)N(C)C(=O)c2ccccc2O1 (mixture of isomers)
    -8 | -12 | 2.9

Continued; it opens with the 3 that closed the last part.
Second line of a record: Ecoli rRNA inh | Ecoli rRNA inh OD600 | Ecoli rRNA inh RFP
> CCCN(C)C[C@@H]1Oc2cc(C#CC3CCCCC3)ccc2S(=O)(=O)N([C@@H](C)CO)C[C@@H]1C
    9 | 8 | 1.7
> COc1ccc(NC(=O)N(C)C[C@H]2Oc3ccc(NS(=O)(=O)c4ccc(C)cc4)cc3CC(=O)N([C@@H](C)CO)C[C@@H]2C)cc1
    0 | 2 | 1.8
> C[C@H]1CC=CC[C@H](c2ccc3c(c2)OCO3)NC(=O)[C@@H](Cc2ccccc2)N(C)C(=O)c2ccccc2O1 (mixture of isomers)
    -8 | -12 | 2.9
> CC(C)NC(=O)N(C)C[C@H]1Oc2ccc(NC(=O)Cn3cnnn3)cc2C(=O)N([C@H](C)CO)C[C@H]1C
    3 | 15 | -0.8
> CNC[C@H]1OCCCC[C@H](C)Oc2ccc(NC(=O)Nc3ccc(F)cc3)cc2C(=O)N([C@@H](C)CO)C[C@@H]1C
    -6 | -11 | -0.6
> CCC(=O)N1CCC2(CC1)CN(CC1CCCCC1)[C@H](CO)c1c2c2ccc(OC)cc2n1C
    5 | 4 | 2.1
> C[C@@H]1CN([C@H](C)CO)C(=O)Cc2cc(N(C)C)ccc2O[C@H]1CN(C)Cc1ccc(Cl)c(Cl)c1
    -8 | -22 | 5.5
> CO[C@H]1CN(C)C(=O)c2cc(NC(=O)c3ccc(F)cc3)ccc2OC[C@H](C)NC[C@@H]1C
    -1 | -6 | 0.3
> CCC(=O)N1CC[C@@H]2[C@H]1c1cc(-c3cccc(OC)c3)ccc1N(C)[C@H]2CO
    1 | -19 | 7.1
> CNC[C@@H]1OCc2ccccc2-c2ccccc2C(=O)N([C@@H](C)CO)C[C@H]1C
    -1 | 2 | 0.2
> N#Cc1ccc(-c2ccc(C3[C@@H]4CN(S(=O)(=O)c5cccc(Cl)c5)C[C@H]3N4)cc2)cc1 (some centres not stated)
    -36 | -51 | -3.3
> C[C@@H]1CN([C@@H](C)CO)C(=O)c2cc(N(C)C)ccc2O[C@@H](C)CCCCO[C@H]1CN(C)C
    -1 | 5 | 0.2
> O=C(NC[C@H]1[C@H](c2ccccc2)[C@@H](CO)N1C(=O)C1CCC1)NC1CCCC1
    0 | 2 | -2.0
> CC[C@@H]1C/C=C\C[C@H](c2ccccc2)NC(=O)CCC(=O)N1
    6 | 6 | -0.7
> CCCNC(=O)N1CC2(CCN(C(=O)COC)CC2)c2c(n(C)c3cc(OC)ccc23)[C@H]1CO
    -1 | 12 | -3.3
> C[C@H]1CN(C)C(=O)Cc2cc(N(C)C)ccc2O[C@@H]1CN(C)S(C)(=O)=O
    3 | -3 | -1.6
> CC(=O)NC[C@H]1[C@H](c2ccc(C3=CCCCC3)cc2)[C@H](CO)N1C(=O)NC(C)C
    -2 | -10 | 2.8
> CNC[C@@H]1OCCCC[C@@H](C)Oc2ccc(NC(=O)NC3CCCCC3)cc2C(=O)N([C@H](C)CO)C[C@@H]1C
    1 | 3 | -2.6
> C[C@@H]1CN([C@@H](C)CO)C(=O)c2cc(-c3cccnc3)cnc2O[C@@H]1CN(C)Cc1ccccc1
    5 | 8 | -2.1
> CCCC(=O)Nc1ccc2c(c1)C(=O)N(C)C[C@@H](OC)[C@H](C)CN(C(=O)Cc1ccccn1)[C@H](C)CO2
    2 | 5 | -1.6
> C[C@@H]1CN([C@H](C)CO)C(=O)c2cc(NS(=O)(=O)c3ccc(Cl)cc3)ccc2O[C@H]1CN(C)C(=O)Nc1ccc(C(F)(F)F)cc1
    1 | 1 | -5.1
> Cc1ccc(S(=O)(=O)N(C)C[C@H]2Oc3ccc(NS(=O)(=O)c4cn(C)cn4)cc3C(=O)N([C@H](C)CO)C[C@@H]2C)cc1
    4 | 1 | -3.0
> CCCNC(=O)N1[C@H](CNC(C)=O)[C@H](c2ccc(-c3ccccc3)cc2)[C@@H]1CO
    -7 | -8 | -1.0
> CCCC(=O)Nc1ccc2c(c1)C(=O)N(C)C[C@@H](OC)[C@H](C)CN(CC1CCOCC1)[C@@H](C)CO2
    1 | 5 | -1.1
> CC(=O)N(C)C[C@H]1Oc2c(cccc2N(C)C)C(=O)N(C)C[C@@H]1C
    0 | 2 | -1.1
> C[C@@H]1CN(C)C(=O)c2cc(NS(C)(=O)=O)ccc2O[C@H]1CN(C)C
    -1 | 0 | 0.3
> C[C@H]1CN([C@@H](C)CO)C(=O)c2ccccc2-c2ccccc2CO[C@@H]1CN(C)S(=O)(=O)c1ccc(Cl)cc1
    0 | 2 | -5.9
> Cc1ccc(S(=O)(=O)N(C)C[C@H]2Oc3c(NS(=O)(=O)c4cn(C)cn4)cccc3C(=O)N([C@@H](C)CO)C[C@H]2C)cc1
    4 | 6 | -0.8
> C[C@H](CO)N1C[C@H](C)[C@@H](CN(C)S(=O)(=O)c2ccc(Cl)cc2)Oc2ccc(NC(=O)Cc3cn(C)c4ccccc34)cc2CC1=O
    -5 | -4 | -1.9
> CCC(=O)NC[C@@H]1[C@H](c2ccc(C3=CCCC3)cc2)[C@H](CO)N1C(=O)C1CC1
    1 | 5 | -3.6
> C[C@H](NC(=O)N(C)C[C@@H]1OCc2ccccc2-c2c(n(C)c3ccccc23)C(=O)N([C@H](C)CO)C[C@H]1C)c1ccccc1
    -2 | -5 | 1.4
> C[C@H](CO)N1C[C@H](C)[C@@H](CN(C)C(=O)Nc2cccc3ccccc23)OCc2cn(nn2)CCCC1=O
    2 | -1 | -0.2
> C/C=C/c1ccc([C@H]2[C@H](CO)N(S(C)(=O)=O)[C@H]2CNCC2CCC2)cc1
    -4 | -12 | 6.0
> C[C@@H]1CN([C@H](C)CO)C(=O)c2cc(N(C)C)ccc2O[C@@H](C)CCCCO[C@H]1CN(C)C(=O)Nc1ccc(C(F)(F)F)cc1
    3 | 1 | 0.0
> O=C(CN1CCOCC1)N1CC[C@@H]2[C@@H](CO)Nc3ccc(-c4ccccc4)cc3[C@@H]21
    -5 | -7 | 0.7
> C[C@@H]1CCCCO[C@@H](CN(C)C)[C@@H](C)CN([C@H](C)CO)C(=O)c2cc(NS(=O)(=O)c3ccc(Cl)cc3)ccc2O1
    1 | 6 | -0.5
> C[C@H](CO)N1C[C@H](C)[C@H](CN(C)C(=O)Nc2cccc3ccccc23)Oc2ccc(NC(=O)c3ccncc3)cc2C1=O
    -5 | -7 | 0.7
> COc1ccc2c3c(n(C)c2c1)[C@@H](CO)N(CC1CC1)CC31CCN(Cc2nccs2)CC1
    -1 | -5 | 0.7
> CO[C@H]1CN(C)C(=O)c2ccc(NC(=O)C3CCC3)cc2OC[C@@H](C)N(C(=O)CN(C)C)C[C@@H]1C
    0 | 0 | -1.5
> CN(C)CC(=O)N1CC2(C1)[C@@H](c1ccccc1)[C@H](CO)N2C(=O)C1CC1
    1 | -2 | -2.0
> CO[C@@H]1CN(C)C(=O)c2ccc(NC(=O)C3CCCCC3)cc2OC[C@@H](C)N(Cc2cccnc2)C[C@@H]1C
    -8 | -13 | 4.7
> O=C(C[C@@H]1CC[C@H](NC(=O)Cc2ccccn2)[C@@H](CO)O1)NCCc1ccncc1
    5 | -1 | -2.7
> COc1ccc(-c2cnc3c(c2)C(=O)N([C@@H](C)CO)C[C@H](C)[C@@H](CN(C)S(=O)(=O)c2ccc(OC)cc2)O3)cc1
    -3 | -5 | 2.4
> COc1ccc2c3c(n(C)c2c1)[C@@H](CO)N(C(=O)Nc1ccccc1F)CC31CN(C)C1
    0 | 2 | -2.0
> C[C@H]1CN([C@@H](C)CO)C(=O)CCCn2cc(nn2)CO[C@@H]1CN(C)Cc1ccc2cccnc2c1
    2 | -7 | 1.9
> C[C@@H]1CN([C@H](C)CO)C(=O)c2cc(NS(=O)(=O)c3ccccc3)ccc2O[C@H]1CN(C)S(=O)(=O)c1cn(C)cn1
    3 | 4 | 4.7
> Cc1noc(C)c1NC(=O)N(C)C[C@@H]1Oc2c(NC(=O)Nc3ccccc3)cccc2C(=O)N([C@@H](C)CO)C[C@H]1C
    4 | 7 | 0.5
> C[C@@H]1CN([C@H](C)CO)C(=O)c2cc(C#CC(C)(C)O)cnc2O[C@H]1CN(C)C(=O)C1CCCCC1
    8 | 11 | -1.4
> CCNC[C@@H]1[C@@H](c2ccc(-c3ccc(F)cc3)cc2)[C@@H](CO)N1C(=O)C1CC1
    -1 | -3 | 1.9

Entries of single compounds from above:
`COc1ccc2c3c(n(C)c2c1)[C@@H](CO)N(CC1CC1)CC31CCN(Cc2nccs2)CC1` is listed with Ecoli rRNA inh = -1; Ecoli rRNA inh OD600 = -5; Ecoli rRNA inh RFP = 0.7
`Cc1noc(C)c1NC(=O)N(C)C[C@@H]1Oc2c(NC(=O)Nc3ccccc3)cccc2C(=O)N([C@@H](C)CO)C[C@H]1C` is listed with Ecoli rRNA inh = 4; Ecoli rRNA inh OD600 = 7; Ecoli rRNA inh RFP = 0.5
